MLL AF4-AF9 inh = inhibitors of AF4 peptide binding to AF9, primary screen, biochemical, AlphaScreen, biotin-AF4 peptide, FLAG-AF9, single point. inhibition, % at 10 µM. Protein AF-9 (Homo sapiens), P42568. AID 651704, 2012. actives 0.47% (n = 350,000);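 active means every replicate reaching a set inhibition limit, whatever the replicate mean, cut at about 25% in these data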;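 further: 0% = plate neutral control median and 100% = total signal loss; the record names both 10 and 1 µM as test concentration; the first replicate is given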
Target sequence (P42568 whole entry, looked up): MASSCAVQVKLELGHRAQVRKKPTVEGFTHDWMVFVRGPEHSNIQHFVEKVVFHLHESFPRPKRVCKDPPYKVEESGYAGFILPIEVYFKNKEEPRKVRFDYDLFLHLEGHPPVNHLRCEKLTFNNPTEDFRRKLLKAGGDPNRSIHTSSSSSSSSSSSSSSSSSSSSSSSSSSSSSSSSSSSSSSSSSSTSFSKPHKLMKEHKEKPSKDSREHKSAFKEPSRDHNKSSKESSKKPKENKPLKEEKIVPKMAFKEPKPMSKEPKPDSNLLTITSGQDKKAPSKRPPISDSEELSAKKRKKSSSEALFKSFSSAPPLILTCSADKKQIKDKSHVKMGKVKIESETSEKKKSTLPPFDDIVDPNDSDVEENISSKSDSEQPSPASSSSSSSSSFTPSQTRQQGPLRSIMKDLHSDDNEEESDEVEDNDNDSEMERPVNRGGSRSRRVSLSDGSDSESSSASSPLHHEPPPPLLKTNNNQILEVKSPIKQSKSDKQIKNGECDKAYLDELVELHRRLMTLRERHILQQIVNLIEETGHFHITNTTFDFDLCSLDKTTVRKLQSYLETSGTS
rRNA inh HTS = reduced GFP signal of wild-type E. coli, primary screen, bacterial rRNA inhibitor project, GFP/RFP fluorescence, OD600, single point | GFP signal change (wild-type ribosome), % (test concentration not listed) | E. coli WT GFP vs humanized-ribosome RFP mutants, 24 h; active compounds read low; DMSO median 0, no signal -100 | actives 1.6% (n = 350,000);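 active means significant combined selectivity score with lowered wild-type GFP, culture density cut under 30%, mutant RFP and density less affected; inactive means any of these conditions unmet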; further: one replicate is shown; some compounds called inactive have numbers as strong as hits
rRNA inh HTS OD600 = recorded beside rRNA inh HTS, whose call it bears; OD600 change, %; measured here: OD600 growth;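 optical density of the mix in the first replicate; 0 = DMSO median and -100 = no signal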
rRNA inh HTS RFP = further read-out of rRNA inh HTS, marked with its call; RFP signal change, %; measured here: RFP humanized mutant strains;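 first replicate; 0 = DMSO median and -100 = no signal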
Active calls of the source: *; & = joins results of further samples. Not all compounds are listed; count on the stated rates, not on these rows.

Abbreviations: A = MLL AF4-AF9 inh; B = rRNA inh HTS; C = rRNA inh HTS OD600; D = rRNA inh HTS RFP
C/C=C/c1ccc([C@H]2[C@@H](CO)N(C(=O)CC)[C@H]2CN(C)C(=O)NC(C)C)cc1
  A = -0.6	B = 1	C = -5	D = -0.8
O=C(Nc1ccc(C(F)(F)F)cc1)N[C@@H]1C=C[C@H](CC(=O)N2CCCCC2)O[C@@H]1CO
  A = -8.2	B = -5	C = -7	D = -0.8
COCC#Cc1ccc([C@@H]2[C@@H](CO)N3C(=O)CN(C(=O)C4CCOCC4)C[C@@H]23)cc1
  A = -0.9	B = 8	C = 6	D = -1.6
CCCN1[C@@H]2Cn3c(ccc(-c4ccc(F)cc4)c3=O)[C@H]1[C@@H](C(=O)NCC)[C@@H]2CO
  A = -1.1	B = 0	C = 0	D = 1.8
COc1ccc2c3c(n(C)c2c1)[C@H](CO)N(Cc1ccccn1)CC31CN(Cc2ccccn2)C1
  A = 6.0	B = 6	C = 15	D = -2.0
CCCC#Cc1ccc([C@@H]2[C@@H](CO)N3C(=O)CN(C(=O)c4ccncc4)C[C@H]23)cc1
  A = -2.8	B = -3	C = 13	D = 0.4
COc1ccccc1NC(=O)N1CC(=O)N2[C@H](C1)[C@H](c1ccc(-c3ccc(F)cc3)cc1)[C@@H]2CO
  A = 0.5	B = -5	C = -14	D = 8.4
CCN1[C@H](C(=O)NCCCN(C)C)[C@@H](CO)[C@@H]2Cn3c(ccc(C4=CCCC4)c3=O)[C@@H]21
  A = 2.5	B = 1	C = 2	D = -1.2
C[C@@H]1CN([C@@H](C)CO)C(=O)c2cc(NC(=O)C3CCCCC3)ccc2O[C@@H](C)CCCCO[C@H]1CN(C)S(=O)(=O)c1ccccc1
  A = -0.4	B = 1	C = -1	D = 3.4
COc1ccc(C#Cc2ccc([C@H]3[C@@H](CO)N4C(=O)CN(C(=O)c5ccncc5)C[C@H]34)cc2)cc1
  A = -1.6	B = -3	C = -1	D = -0.4
COc1ccc(-c2ccc(C3[C@H]4CNC[C@@H]3N4Cc3ccc4c(c3)OCO4)cc2)cc1 (stereo partly specified)
  A = -0.8&5.7	B = -4&0	C = 25&-12	D = 1.9&-1.0
C[C@@H]1CN([C@H](C)CO)C(=O)Cc2cc(N(C)C)ccc2O[C@H]1CN(C)S(C)(=O)=O
  A = -3.9	B = 2	C = 10	D = -0.7
COc1ccc(NC(=O)N(C)C[C@H]2OCCCC[C@H](C)Oc3ccc(NS(=O)(=O)c4ccc(C)cc4)cc3C(=O)N([C@H](C)CO)C[C@@H]2C)cc1
  A = -6.0	B = -3	C = -4	D = -1.6
CN(C)C(=O)[C@@H]1[C@@H](CO)[C@@H]2Cn3c(ccc(C4=CCCC4)c3=O)[C@H]1N2CC1CCCC1
  A = 1.0	B = 0	C = -2	D = 0.5
O=C1CNC[C@@H]2[C@H](c3ccc(C4=CCCC4)cc3)[C@@H](CO)N12
  A = -0.7	B = 0	C = -2	D = -2.2
C[C@H]1CN([C@@H](C)CO)C(=O)c2cc(NS(=O)(=O)c3ccccc3)ccc2O[C@@H]1CN(C)S(=O)(=O)c1ccccc1
  A = 0.2	B = -2	C = -7	D = 5.1
CCCN1[C@@H]2c3ccc(C4=CCCCC4)c(=O)n3C[C@H]1[C@H](CO)[C@H]2C(=O)NCCc1ccncc1
  A = -3.2	B = 1	C = 1	D = -0.1
COc1ccc(NC(=O)N2CC(=O)N3[C@H](CO)[C@H](c4ccc(Br)cc4)[C@H]3C2)cc1
  A = 0.0	B = -4	C = -5	D = 2.1
O=C(Nc1cccc(F)c1)N1CC(=O)N2[C@H](C1)[C@@H](c1ccc(-c3ccccc3)cc1)[C@@H]2CO
  A = 1.2	B = -35	C = -67	D = 3.3
O=C(NC[C@H]1[C@@H](c2ccccc2)[C@@H](CO)N1Cc1ccccn1)NC1CCCC1
  A = -2.2	B = 2	C = 2	D = -0.1
COc1ccc(C#Cc2ccc3c(c2)[C@@H]2[C@@H](CCN2C(=O)C2CCC2)[C@H](CO)N3)cc1
  A = 15	B = -2	C = -8	D = -2.6
CC(C)NC(=O)N[C@@H]1CC[C@@H](CC(=O)NCCCN(C)C)O[C@H]1CO
  A = -0.4	B = 3	C = 6	D = -1.8
COc1ccc(NC(=O)N2CC(=O)N3[C@@H](CO)[C@@H](c4ccc(C#CCC5CCCC5)cc4)[C@@H]3C2)cc1
  A = 5.6	B = -7	C = -14	D = 28
N#C[C@@H]1[C@H](c2ccccc2-c2ccccc2F)[C@@H](CO)N1C(=O)c1ccccn1
  A = -4.6	B = -2	C = -6	D = -1.2
O=C(Cc1ccncc1)Nc1ccc2c(c1)[C@@H]1C[C@H](CC(=O)N3CCCCC3)O[C@H](CO)[C@@H]1O2
  A = 1.1	B = 3	C = 3	D = 1.4

A second format for some results above:
canonical_smiles	MLL AF4-AF9 inh	rRNA inh HTS	rRNA inh HTS OD600	rRNA inh HTS RFP
C/C=C/c1ccc([C@H]2[C@@H](CO)N(C(=O)CC)[C@H]2CN(C)C(=O)NC(C)C)cc1	-0.6	1	-5	-0.8
O=C(Nc1ccc(C(F)(F)F)cc1)N[C@@H]1C=C[C@H](CC(=O)N2CCCCC2)O[C@@H]1CO	-8.2	-5	-7	-0.8
COCC#Cc1ccc([C@@H]2[C@@H](CO)N3C(=O)CN(C(=O)C4CCOCC4)C[C@@H]23)cc1	-0.9	8	6	-1.6
CCCN1[C@@H]2Cn3c(ccc(-c4ccc(F)cc4)c3=O)[C@H]1[C@@H](C(=O)NCC)[C@@H]2CO	-1.1	0	0	1.8
COc1ccc2c3c(n(C)c2c1)[C@H](CO)N(Cc1ccccn1)CC31CN(Cc2ccccn2)C1	6.0	6	15	-2.0
CCCC#Cc1ccc([C@@H]2[C@@H](CO)N3C(=O)CN(C(=O)c4ccncc4)C[C@H]23)cc1	-2.8	-3	13	0.4
COc1ccccc1NC(=O)N1CC(=O)N2[C@H](C1)[C@H](c1ccc(-c3ccc(F)cc3)cc1)[C@@H]2CO	0.5	-5	-14	8.4
CCN1[C@H](C(=O)NCCCN(C)C)[C@@H](CO)[C@@H]2Cn3c(ccc(C4=CCCC4)c3=O)[C@@H]21	2.5	1	2	-1.2
C[C@@H]1CN([C@@H](C)CO)C(=O)c2cc(NC(=O)C3CCCCC3)ccc2O[C@@H](C)CCCCO[C@H]1CN(C)S(=O)(=O)c1ccccc1	-0.4	1	-1	3.4
COc1ccc(C#Cc2ccc([C@H]3[C@@H](CO)N4C(=O)CN(C(=O)c5ccncc5)C[C@H]34)cc2)cc1	-1.6	-3	-1	-0.4
COc1ccc(-c2ccc(C3[C@H]4CNC[C@@H]3N4Cc3ccc4c(c3)OCO4)cc2)cc1 (stereo partly specified)	-0.8&5.7	-4&0	25&-12	1.9&-1.0
C[C@@H]1CN([C@H](C)CO)C(=O)Cc2cc(N(C)C)ccc2O[C@H]1CN(C)S(C)(=O)=O	-3.9	2	10	-0.7
COc1ccc(NC(=O)N(C)C[C@H]2OCCCC[C@H](C)Oc3ccc(NS(=O)(=O)c4ccc(C)cc4)cc3C(=O)N([C@H](C)CO)C[C@@H]2C)cc1	-6.0	-3	-4	-1.6
CN(C)C(=O)[C@@H]1[C@@H](CO)[C@@H]2Cn3c(ccc(C4=CCCC4)c3=O)[C@H]1N2CC1CCCC1	1.0	0	-2	0.5

Remaining list, next part.
Abbreviations: A = MLL AF4-AF9 inh; B = rRNA inh HTS; C = rRNA inh HTS OD600; D = rRNA inh HTS RFP
Cc1cc2c(c(=O)o1)[C@@]1(C(=O)N(C)c3c(Br)cccc31)C1=C(CCCC1=O)O2
  A = -6.9	B = 7	C = 5	D = 2.4
CN(C)C(=O)C[C@@H]1CC[C@@H]2[C@H](COc3ccc(NC(=O)C4CCC4)cc3C(=O)N2C)O1
  A = 0.1	B = 2	C = 7	D = -0.6
CC=Cc1ccc2n(c1=O)C[C@H]1[C@H](CO)[C@@H](C(=O)NC3Cc4ccccc4C3)N(CC3CCCC3)[C@@H]21 (mixture of isomers)
  A = 7.4	B = -7	C = -31	D = 26
O=C(C[C@H]1C=C[C@@H](NC(=O)Nc2ccccc2F)[C@@H](CO)O1)NCc1ccccc1
  A = -5.3	B = -3	C = -3	D = 2.5
C/C=C/c1ccc([C@H]2[C@H](CO)N3C(=O)CN(C(=O)c4ccncc4)C[C@@H]23)cc1
  A = -2.1	B = 6	C = 14	D = -0.7
CO[C@H]1CN(C)C(=O)c2cc(NS(C)(=O)=O)ccc2OC[C@H](C)N(C(=O)CC2CC2)C[C@@H]1C
  A = 0.2	B = 4	C = 3	D = -1.4
O=C(C[C@H]1CC[C@H](NC(=O)CCN2CCCCC2)[C@H](CO)O1)Nc1ccccc1
  A = -3.8	B = 3	C = 0	D = 1.1
O=C(C[C@H]1CC[C@H]2[C@@H](COC[C@H](O)CN2S(=O)(=O)c2ccc(Cl)cc2)O1)NCCN1CCCCC1
  A = 3.3	B = 1	C = 9	D = -3.1
CN(C)CC#Cc1ccc([C@@H]2[C@@H](CO)N3C(=O)CN(C(=O)CN(C)C)C[C@H]23)cc1
  A = 0.8	B = 11	C = 20	D = -3.6
C[C@H](CO)N1C[C@H](C)[C@@H](CN(C)C(=O)Nc2ccnc(N3CCOCC3)c2)OCc2ccccc2-c2c(n(C)c3ccccc23)C1=O
  A = -3.9	B = -3	C = 2	D = -1.4
N#Cc1ccc(-c2ccc(C3[C@@H]4CN(S(=O)(=O)c5ccccc5F)C[C@H]3N4)cc2)cc1 (stereo partly specified)
  A = -2.3&-2.6	B = -2&3	C = -7&-19	D = 7.8&1.1
CN(C)C(=O)C[C@H]1C=C[C@H](NC(=O)C2CCOCC2)[C@@H](CO)O1
  A = -3.4	B = -1	C = 1	D = -1.7
COCC#Cc1ccc([C@H]2[C@H]3CN(C(=O)C4CCC4)CC(=O)N3[C@H]2CO)cc1
  A = -9.7	B = 9	C = 23	D = -4.4
COc1cccc(S(=O)(=O)N2CCC3(CC2)CN[C@@H](CO)c2[nH]c4cc(OC)ccc4c23)c1
  A = 16	B = -10	C = -22	D = 3.1
C[C@H](CO)N1C[C@H](C)[C@H](CN(C)CC2CC2)OCCCC[C@H](C)Oc2ccc(NC(=O)C3CCCCC3)cc2C1=O
  A = -5.4	B = 1	C = 4	D = -3.2
O=C(C[C@@H]1CC[C@@H]2[C@H](COC[C@H](O)CN2CC2CC2)O1)NCC1CC1
  A = -0.6	B = 5	C = 5	D = 0.2
O=C(C[C@@H]1CC[C@@H]2[C@H](COC[C@H](O)CN2S(=O)(=O)c2ccccc2)O1)N[C@@H]1CCN(Cc2ccccc2)C1
  A = 0.6	B = -8	C = -4	D = -5.8
O=C(C[C@H]1CC[C@H]2[C@@H](COC[C@@H](O)CN2Cc2cc(F)cc(F)c2)O1)NC1CCC1
  A = -0.1	B = -3	C = 3	D = 1.0
O=C(c1cccc(F)c1)N1CC2(C1)[C@H](c1ccccc1)[C@H](CO)N2C(=O)C1CCC1
  A = -4.1	B = -4	C = 1	D = 1.8
Cc1cccc(-c2ccc(C3[C@@H]4CN(Cc5ccccc5F)C[C@H]3N4)cc2)c1 (stereo partly specified)
  A = 8.7	B = -58	C = -78	D = -12
CO[C@@H]1CN(C)C(=O)c2cc(NC(=O)c3ccno3)ccc2OC[C@H](C)NC[C@H]1C
  A = -15	B = 12	C = 7	D = 2.6
N#Cc1ccc(-c2ccc(C3[C@@H]4CN(C(=O)c5ccccn5)C[C@H]3N4)cc2)cc1 (stereo partly specified)
  A = -4.2&-3.3	B = 1&3	C = -1&12	D = -1.9&-1.7
COc1cc(CN2CC3(CN(C(=O)c4ccc5c(c4)OCO5)C3)c3c(n(C)c4cc(OC)ccc34)[C@H]2CO)cc(OC)c1
  A = -4.8	B = 1	C = 0	D = 0.0
C[C@@H]1CN([C@H](C)CO)C(=O)c2cc(NC(=O)Cc3ccccc3)ccc2O[C@@H]1CN(C)C(=O)Nc1ccc(C(F)(F)F)cc1
  A = 2.7	B = -10	C = -14	D = 1.3
COCC#Cc1ccc([C@@H]2[C@H]3CN(C(=O)C4CC4)CC(=O)N3[C@H]2CO)cc1
  A = -3.8	B = 2	C = 4	D = -3.8
COc1ccc2c3c([nH]c2c1)[C@H](CO)N(Cc1cccc(F)c1)CC31CCN(C(C)=O)CC1
  A = -3.9	B = 5	C = -9	D = -1.9
COc1ccc(NC(=O)N(C)C[C@@H]2Oc3ccc(NC(=O)CCC(F)(F)F)cc3C(=O)N([C@H](C)CO)C[C@@H]2C)cc1
  A = -1.5	B = 1	C = 4	D = -2.2
CCNC(=O)[C@H]1[C@H](CO)[C@H]2Cn3c(ccc(C4=CCCCC4)c3=O)[C@@H]1N2CCC(F)(F)F
  A = -3.4	B = 0	C = 3	D = -2.1
CC(C)CC#Cc1ccc([C@@H]2[C@@H](CO)N3C(=O)CN(C(=O)NC4CCCCC4)C[C@H]23)cc1
  A = 1.9	B = -10	C = -38	D = 31
